Source: PubChem (National Center for Advancing Translational Sciences (NCATS))
RE007 growth inh – less growth of the S. pombe RE007 Vpr strain | Potency, µM (top dose mostly 92.2 µM), for inactives: top-dose activity change, negative = less growth | 360,000 compounds, 0.21% hits | S. pombe RE007 Vpr strain, BacTiter-Glo ATP luminescence, 24 h; control for the full effect not named in the record; active = well fitted falling curve with a large enough effect; inconclusive = small, poorly fitted or top-dose-only effect; inactive = no such curve, though single readings can be large or run the other way;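 also: % is scaled to controls: 0 for no effect and ±100 for the full control effect; nearly all actives have a fitted effect of over 50% in size; the assay follows cell death caused by Vpr and the record does not say whether a fall means rescue or toxicity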
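Fission yeast strain RE007, carrying one chromosomally integrated HIV-1 vpr copy, was seeded at OD 0.01 in PMG+AL medium with 23 nL pinned compound. After 24 h at 30 °C and 99% humidity, viability was read by BacTiter-Glo luminescence.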
SARS PLP yeast – SARS-CoV PLP inhibition in yeast; S. cerevisiae expressing SARS-CoV PLpro, growth rescue; control for the full effect not named in the record; AID 485353; 330,000 compounds, 0.19% hits; Potency, µM (top dose mostly 32.9 µM), inactives show at the top dose activity, positive = growth rescue; active means well fitted rising curve with a large enough effect; inconclusive means small, poorly fitted or top-dose-only effect; inactive means no such curve, though single readings can be large or run the other way; also: 0% is about no effect; nearly all actives have a fitted effect of over 55% in size; growth read by luminescence after 48 h
StopGo reporter – lowers the luciferase signal of an FMDV 2A StopGo reporter | 410,000 compounds, 1.2% hits | human cells with a luciferase reporter of 2A StopGo recoding; control for the full effect not named in the record | Potency, µM (top dose mostly 57.9 µM), for the others: top-dose signal change, negative = less light; active = well fitted falling curve with a large enough effect; inconclusive = small, poorly fitted or top-dose-only effect; inactive = no such curve, though single readings can be large or run the other way; tested in HEK293T cells; also: % is scaled to controls: 0 for no effect and ±100 for the full control effect; nearly all actives have a fitted effect of over 45% in size; luciferase light after 4 h
Cruzain noTriton – blocks cruzain activity in detergent-free assay; P25779; purified cruzain, Z-FR-AMC fluorescence, no detergent; Potency, µM, without a hit: max response, negative = inhibition, most hits filed as inhibitors; 200,000 compounds, 2.3% hits; AID 1476;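 also: plate controls were enzyme without inhibitor for no effect and buffer without enzyme for full effect; nearly all actives have a fitted effect of over 40% in size; top concentration of the series not given in the record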
Target sequence (P25779 123-467 limits assumed): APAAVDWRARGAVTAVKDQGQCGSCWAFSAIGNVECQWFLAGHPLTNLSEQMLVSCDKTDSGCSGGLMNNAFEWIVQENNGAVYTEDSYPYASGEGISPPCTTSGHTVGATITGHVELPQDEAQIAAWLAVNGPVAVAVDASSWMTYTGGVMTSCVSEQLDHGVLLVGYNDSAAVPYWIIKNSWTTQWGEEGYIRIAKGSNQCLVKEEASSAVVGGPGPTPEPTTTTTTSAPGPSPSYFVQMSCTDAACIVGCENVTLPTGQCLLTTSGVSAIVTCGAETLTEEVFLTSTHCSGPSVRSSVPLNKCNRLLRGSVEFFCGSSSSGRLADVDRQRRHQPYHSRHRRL
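Purified cruzain at 1.5 nM, pre-incubated 15 min with compound at room temperature in 100 mM sodium acetate pH 5.5, 5 mM DTT, 0.00005% Triton X-100. Reaction started with 2 uM Z-FR-AMC; AMC fluorescence increase over 60 s gives rate.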
LASV entry inh – Lassa virus entry inhibition | Lassa virus pseudotype entry inhibition, cell reporter; control for the full effect not named in the record | 300,000 compounds, 1.2% hits | AID 540256 | Potency, µM (doses to about 37.9 µM), without a hit: at the highest dose activity change, negative = inhibition, hits mostly inhibitors; active means well fitted inhibition curve with a large enough effect; inconclusive means small, poorly fitted or top-dose-only effect, or effect the other way; inactive means flat fitted curve, though single readings scatter; tested in HEK293 cells; also: % is scaled to controls: 0 for no effect and ±100 for the full control effect; nearly all actives have a fitted effect of over 50% in size; luciferase read-out
NS1 inh – influenza NS1 inhibition | S. cerevisiae slowed by influenza A NS1, growth recovery by OD600 | Potency, µM (doses to about 46.1 µM), without a hit: at the top dose activity, positive = more growth | AID 2326 | 270,000 compounds, 0.4% hits; active means well fitted rising curve with a large enough effect; inconclusive means small, poorly fitted or top-dose-only effect; inactive means no such curve, though single readings can be large or run the other way; also: nearly all actives have a fitted effect of over 50% in size
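S. cerevisiae expressing influenza A NS1, grown in glucose, washed, then diluted 1:100 into pH 6.0 -URA galactose medium with 23 nl compound. Growth recovery read as OD600; NS1-free strain serves as control.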
MARV entry inh – inhibitors of Marburg virus binding or cell entry. Marburg virus pseudotyped entry inhibition, cell reporter; control for the full effect not named in the record; about a third of the inactives were read at about 46 µM. Potency, µM (doses to about 37.8 µM), inactives show at the top dose activity change, negative = inhibition, most hits filed as inhibitors. 300,000 compounds, 1.8% hits; active = well fitted inhibition curve with a large enough effect; inconclusive = small, poorly fitted or top-dose-only effect, or effect the other way; inactive = flat fitted curve, though single readings scatter; tested in HEK293 cells; about a fifth of its hits are not listed in these tables; also: % is scaled to controls: 0 for no effect and ±100 for the full control effect; luciferase read-out
Cruzain Triton – cruzain (T. cruzi) inhibition with detergent. P25779. Potency, µM, without a hit: max response, negative = inhibition, hits mostly inhibitors. AID 1478. purified cruzain, Z-FR-AMC fluorescence, 0.01% Triton. 200,000 compounds, 0.43% hits;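 also: plate controls were neutral wells for no effect and buffer without enzyme for full effect; nearly all actives have a fitted effect of over 40% in size; top concentration of the series not given in the record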
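Detergent-containing arm of a paired screen for aggregation-based inhibition: 0.01% Triton X-100 present. Cruzain at 1.5 nM cleaved 2 uM Z-FR-AMC at pH 5.5 with 5 mM DTT; AMC fluorescence gain over 60 s measured activity.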
Numbers without * were called inactive; ? = inconclusive; / = not tested or not shown; & = joins results of further samples; [ ] = remark or other dose. Unless noted, calls follow the shape of the dose curve; as a rule, active = well fitted curve in the direction sought with a large enough effect; inconclusive = small, poorly fitted or top-dose-only effect, or another doubt; inactive = no such curve, though single readings can be large; an effect the other way counts as inactive or inconclusive. Potency is read from the fitted curve at half-maximal effect.

SMILES	RE007 growth inh	SARS PLP yeast	StopGo reporter	Cruzain noTriton	LASV entry inh	NS1 inh	MARV entry inh	Cruzain Triton
O=C(CN1CCCC1)N1CCCC(c2ccc(F)cc2)c2ccc(F)cc21 (stereo not given)	-10%	-26%	-16%	-7%	6%	-3%	-42%	0.4%
O=C(NCCNc1ccnc2cc(Cl)ccc12)c1ccccc1F	-6%	0%	?	/	/	2%	/	/
O=S(=O)(Nc1ccc(C(F)(F)F)cc1)c1cccs1	14%	-1%	-4%	/	-10%	-42%	-25%[46.1 µM]	/
COc1cccc(N(Cc2nnc3n2CCCCC3)C(=O)Nc2cccc(Cl)c2)c1	/	/	5%	21%	1%[46.1 µM]	/	/	2.9%
c1ccc(CNc2nc3ccccc3n3cnnc23)nc1	-2%	4%	14%	-12%	/	-7%	/	2.5%
Cc1ccc(S[C@@H](CCN2CC[C@H](C(C)(C)C)CCC2=O)c2ccccc2)cc1	0%	-5%	?	/	/	-55%	/	/
O=C(NNC(=O)c1cccc2ccccc12)c1ccc(Br)cc1	-9%	/	31%[activator]	/	15%	/	?	/
Cc1ccc(-c2csc(N(CCO)CCCn3c(C(F)(F)F)nc4ccccc43)n2)cc1	-18%	-3%	?	/	/	11%	/	/
O=C1CCc2cc(S(=O)(=O)N3CCCC3C(=O)N3CCN(c4ccccc4F)CC3)ccc2N1 (stereo not given)	8%	5%	-15%	-1%	/	3%	/	1.5%
O=C(CNC(=O)c1ccccc1Br)N/N=C\c1cc([N+](=O)[O-])cc(Br)c1O	12%	-10%	-17%	/	-2%[46.1 µM]	-45%	1%[46.1 µM]	/
CC(C)(C)c1ccc(OCC(=O)Nc2ccncc2)c(Br)c1	-6%	-13%	4%	/	/	-88%	/	/
O=C(Cn1cccc1)NC1CCCCCC1	-5%	5%	-4%	-10%	9%	0%	10%	4.3%
COc1ccc2c(=O)cc(-c3ccncc3)oc2c1OC	9%	/	-13%	4%	-18%[46.1 µM]	0%	?	4.5%
CCOC(=O)C(NCc1ccc2c(c1)OCO2)(NC(=O)c1ccccc1)C(F)(F)F (stereo not given)	-16%	4%	-20%	12%	-12%	-1%	6%[46.1 µM]	-6.5%
CC1(C)CCCC2=C1CC1C(=O)N(Cc3cccnc3)C(=O)C1C2 (stereo not given)	-2%	-12%	-9%	-2%	-12%	-9%	-17%	-0.6%
CC(C)N(CC(O)c1cccc([N+](=O)[O-])c1)C(C)C (stereo not given)	4%	4%	5%	-2%	9%	16%	17%	5.2%
Cc1cccc(C(=O)N(C)c2nnc(-c3ccncc3)s2)c1	-12%	/	-20%	/	7%	-11%	0%[46.1 µM]	/
CC(C)(C)NC(=S)/N=C(\N)N[N+](=O)[O-]	2%	1%	13%	/	?	/	3%[46.1 µM]	/
CC(C)c1ccc(NC(=O)CN2C(=O)CN=C(c3ccccc3)c3ccccc32)cc1	/	/	-16%	2%	13%[46.1 µM]	/	0%[46.1 µM]	-1.7%
CC1=C2[C@H]3OC(=O)[C@@H](C)[C@@H]3CC[C@@]2(C)C=CC1=O	8%	-6%	-13%	4%	/	/	/	0.1%
COc1ccc(N/C=C2\C(=O)c3c(sc(C)c3C)N(C)S2(=O)=O)cc1	-14%	1%	-7%	/	26%	3%	11%	/
CCc1nnc(SCC(=O)Nc2ccccc2Cl)nc1CC	18%	2%	-9%&-25%	-8%	6%	/	?	1.8%
Cc1cccc(NC(=O)c2ccccc2NC(=O)c2ccccc2)n1	6%	-1%	?	/	/	-3%	/	/
COc1cccc(/C=N/Nc2ncnc3scc(-c4ccccc4)c23)c1O	?	?	-2%	?	5.2µM*	-17%	1.4µM*	-6.5%
O=C(COC(=O)c1cccc(O)c1)NC(=O)Cc1ccccc1	9%	-5%	-1%	/	-22%[46.1 µM]	2%	6%[46.1 µM]	/
Later entries
SMILES	RE007 growth inh	SARS PLP yeast	StopGo reporter	Cruzain noTriton	LASV entry inh	NS1 inh	MARV entry inh	Cruzain Triton
O=C(CC1NC(=O)NC1=O)Nc1ccc(Cl)cc1 (stereo not given)	-14%[3.69 µM]	1%	-10%	-14%	15%	2%	2%	0.5%
CCCCn1c(N)c(N(CCC(C)C)C(=O)C2CC(=O)N(c3ccccc3OCC)C2)c(=O)[nH]c1=O (stereo not given)	4%	10%	0%	/	10%	15%	?	/
Nc1ccc(S(=O)(=O)C(F)(F)F)cc1N	12%	2%	2%	/	2%[46.1 µM]	/	-7%[46.1 µM]	/
O=C(ONC(=O)C1CCCCC1C(=O)NOC(=O)c1ccccc1)c1ccccc1 (stereo not given)	-27%	/	6%	/	3%[46.1 µM]	/	-2%[46.1 µM]	/
CCOC(=O)c1cc(S(=O)(=O)Nc2ccc(OC(F)(F)F)cc2)[nH]n1	/	/	31%[activator]	2%	-2%[46.1 µM]	/	/	-11%
CCOC(=O)N1CCN(C(=O)C(=O)c2cn(CC(=O)N3CCCCCC3)c3ccccc23)CC1	-18%	-2%	?	/	?	12%	3%	/
CC(=O)N1CCOc2ccc(S(=O)(=O)N3CCC(C(=O)Nc4cc(C)cc(C)c4)CC3)cc21	1%	0%	-29%	/	/	4%	/	/
O=C(CCC(=O)N1CCCC(Nc2ccccc2)C1)c1ccc(F)cc1 (stereo not given)	5%	-1%	-21%	/	-2%[46.1 µM]	6%	2%[46.1 µM]	/
CC(CNC(=O)c1cccc(Br)c1)n1cncn1 (stereo not given)	5%	0%	17%	/	17%[46.1 µM]	1%	-7%[46.1 µM]	/
CCCN1CCC(=O)N([C@H](CSc2ccc(OC)cc2)c2ccccc2)CC1	-3%	-1%	33%[activator]	/	/	1%	/	/
O=C1NC(=O)C(Cc2cccs2)C(=O)N1	-14%	-3%	-23%	-10%	0%	2%	-2%	0.7%
CC(=O)c1sc(N/N=C/c2cccc(O)c2)nc1C	4%	1%	26%	/	/	-4%	/	/
CCN(CC)c1ccc(NC(=O)CCS(=O)(=O)c2cccc3nsnc23)c(C)c1	7%	6%	-22%&-5%	4%	-5%	/	?	-3.1%
Cc1ccc(-c2csc3nc(SCC(N)=O)n(Cc4ccccc4)c(=O)c23)cc1	13%	16%	32µM*	7%	-30%	25%	?	-2.1%
Oc1ccc(Cl)cc1C1=Nc2ccccc2N=C(c2cccc(Br)c2)C1	/	/	-15%	9%	7%[46.1 µM]	/	/	-0.7%
CCOc1ccc2nc(NC(=O)CSc3nc(SC)ns3)sc2c1	23%	-1%	55%[activator]	-8%	-10%	10%	-8%	-3.5%
Cc1ccc(/C=C2\SC(=S)N(CCC(=O)Nc3cccnc3)C2=O)cc1	3%	12%	20%	/	16%	12%	8%	/
CC1=NN(C(N)=S)C(=O)C1N=Nc1ccc(Cl)cc1 (stereo not given)	-11%	1%	0%	/	-16%	-19%	-24%	/
Cc1cc(C(F)(F)F)c(C#N)c(SCC(=O)Nc2nc3ccccc3s2)n1	-10%	-10%	?	-22%	?	13%	4.5µM*	-15%
COc1ccccc1C(=O)NC(=O)COc1cc(Cl)ccc1Cl	5%	-1%	10%	/	-2%	/	2%[46.1 µM]	/
CCOc1ccccc1C(=O)Nc1ccc(S(=O)(=O)Nc2nccc(C)n2)cc1	-1%	-3%	56%[activator]	/	-9%[46.1 µM]	13%	-9%[46.1 µM]	/
Cc1ccc2c(c1N)C(=O)c1ccccc1C2=O	-28%	0%	18%	-1%	/	/	/	-6.5%
C=CCNC(=O)c1ccccc1SCc1c(C)noc1C	13%	-9%	-20%	/	/	2%	/	/
Cc1nn(-c2ccccc2)c(C)c1C(=O)Nc1nnc(-c2ccco2)o1	-12%	5%	0%	-9%	-2%	-35%	-12%	5.4%
COC(=O)c1c(-c2cccs2)csc1NC(=O)CSc1ncnc2sc(C)c(C)c12	12%	-1%	-10%	6.3µM*	-19%	-7%	?	2.0%
Remaining list, next part:
SMILES	RE007 growth inh	SARS PLP yeast	StopGo reporter	Cruzain noTriton	LASV entry inh	NS1 inh	MARV entry inh	Cruzain Triton
CC1=C(C(=O)OC(C)C)C(c2cccc(F)c2)n2ncnc2N1 (stereo not given)	-2%	3%	?	-2%	/	1%	/	-2.8%
CCNC(=S)N(CCc1ccc(S(N)(=O)=O)cc1)C1CC(=O)N(c2ccccc2)C1=O (stereo not given)	35%	1%	-20%	/	?	-1%	?	/
COc1cccc(C(=O)NCC(=O)OCC(=O)C(C)(C)C)c1	35%	28%	-8%	-1%	/	-2%	-1%	-12%
COc1ccc2oc(C(=O)OCC(=O)N(CCC#N)c3ccccc3)c(C)c2c1	?	1%	-11%	/	-29%	6%	7%	/
Cc1ccc(SC(C)C(=O)Nc2c(C)n(C)n(-c3ccccc3)c2=O)cc1 (stereo not given)	22%	?	3%	1%	0%	0%	8%	3.1%
CCN(CC)C(=O)c1ccc(NC(=O)c2cccc(S(=O)(=O)N3CCN(C)CC3)c2)cc1	3%	3%	43%[activator]	/	-3%	2%	-4%	/
CCn1nc(C)cc1C(=O)N1CCCC(N2CCN(Cc3ccc4c(c3)OCO4)CC2)C1 (stereo not given)	-6%	8%	-25%	/	-23%[46.1 µM]	0%	?	/
COc1ccc(CNc2oc(/C=C/c3cccc(OC)c3)nc2C#N)cc1	/	/	17%	?	?	/	-13%[46.1 µM]	11%
Cc1ccc(CNC(=O)Cn2ccc3cc(S(=O)(=O)N4CCCCCC4)ccc32)cc1	0%	0%	-8%	/	/	17%	/	/
O=C(CCS(=O)(=O)c1cccs1)Nc1ccc(C(=O)NCc2cccs2)cc1	-13%	-3%	45%[activator]	0%	4%	-14%	4%	-1.4%
c1cc(N2CCCC2)ccc1C(c1nnnn1C1CCCCC1)N1CCOCC1 (stereo not given)	14%	0%	-14%	?	-2%	11µM*	?	0.0%
CCS(=O)(=O)N1CCCC(C(=O)N2CCC3(CC2)OCCO3)C1 (stereo not given)	21%	0%	-6%	-6%	16%	-6%	?	0.3%
COc1ccc(Br)cc1S(=O)(=O)NCc1ccccn1	14%	-3%	80%[activator]	/	/	13%	/	/
COCCCNc1ncnc2c1[nH]c1ccccc12	/	5%	/	?	/	5%	/	-1.1%
